# Screens from PubChem.
# KCNQ2 pot – KCNQ2 (rat) channel potentiation; O88943; CHO-K1 KCNQ2, FluxOR thallium flux fluorescence; active compounds read high; B-score at 10 µM; hit rate 0.54% among 310,000;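 active means fluorescence ratio B-score at least 3 SD of library B-scores, with initial fluorescence B-score within 3 SD, cut at about 5.3 in these data; same plate scores as AID 2156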;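 further: B-score of peak minus minimum over baseline fluorescence ratio after K+ and Tl+ stimulus; positive B-score means potentiation of KCNQ2 with more thallium influx and brighter signal; only the inactives scoring about 0 or higher are listed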
# Target sequence (O88943 whole entry, looked up): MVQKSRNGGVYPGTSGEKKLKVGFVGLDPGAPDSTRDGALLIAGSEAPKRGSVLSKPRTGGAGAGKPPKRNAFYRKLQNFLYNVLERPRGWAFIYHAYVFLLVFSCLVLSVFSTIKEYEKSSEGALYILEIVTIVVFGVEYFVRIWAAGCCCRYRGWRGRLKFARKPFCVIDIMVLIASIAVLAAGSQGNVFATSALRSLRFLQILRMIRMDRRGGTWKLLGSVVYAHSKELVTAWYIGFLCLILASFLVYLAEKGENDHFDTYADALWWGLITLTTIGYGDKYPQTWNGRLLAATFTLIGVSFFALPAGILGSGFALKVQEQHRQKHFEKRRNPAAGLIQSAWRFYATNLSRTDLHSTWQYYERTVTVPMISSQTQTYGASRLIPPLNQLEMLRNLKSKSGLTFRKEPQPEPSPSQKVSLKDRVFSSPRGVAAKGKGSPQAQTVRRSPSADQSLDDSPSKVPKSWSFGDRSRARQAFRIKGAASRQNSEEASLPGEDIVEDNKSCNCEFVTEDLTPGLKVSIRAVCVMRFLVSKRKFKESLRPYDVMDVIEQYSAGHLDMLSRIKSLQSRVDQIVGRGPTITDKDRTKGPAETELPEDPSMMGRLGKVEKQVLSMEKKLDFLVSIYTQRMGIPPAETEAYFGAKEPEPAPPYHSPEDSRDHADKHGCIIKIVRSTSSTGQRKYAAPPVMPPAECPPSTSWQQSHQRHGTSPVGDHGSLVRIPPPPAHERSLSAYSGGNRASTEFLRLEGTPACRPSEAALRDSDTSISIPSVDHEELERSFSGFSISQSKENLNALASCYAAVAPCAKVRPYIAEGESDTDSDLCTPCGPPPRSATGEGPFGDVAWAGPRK
# KCNQ2 pot baseline – second read-out of KCNQ2 pot, no call of its own (marks repeat the call); B-score; compound at 10 µM; measured here: initial fluorescence intensity artifact check;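 brightness before thallium and not channel activity; 0 = typical well and far values either way flag optical interference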
# Starred values were filed as active, the others as inactive.
SMILES,KCNQ2 pot,KCNQ2 pot baseline
COc1ccc(S(=O)(=O)Oc2ccccc2C(=S)N2CCOCC2)cc1,0.22,0.76
CC1CCN(S(=O)(=O)Cc2ccccc2Cl)CC1,0.17,0.74
CCOC(=O)Cc1csc(NC(=O)Nc2cccc(Cl)c2)n1,0.11,0.25
COc1cc(/C=C/[N+](=O)[O-])ccc1OCc1cccc(C(=O)O)c1,4.02,0.09
O=C(CN1C(=O)NC2(CCCC2)C1=O)N1CCN(Cc2ccccc2)CC1,1.12,0.02
CN1CCN(c2ccc(C(CC(N)=O)NC(=O)c3ccccc3)cc2[N+](=O)[O-])CC1 (centres undefined),2.18,0.07
CC(C)C(NS(=O)(=O)c1cccs1)C(=O)Nc1nc(C(C)(C)C)cs1 (centres undefined),0.53,-0.64
NC(=O)c1ccc[n+](CC(=O)Nc2ccccc2C(=O)O)c1,2.68,-1.43
COc1ccccc1C(=O)Nc1sc2c(c1C(N)=O)CCCC2,4.01,-1.66
CC(=O)NCCNC(=O)c1ccc(Cn2c(=O)[nH]c3ccsc3c2=O)cc1,0.83,-0.77
c1cc(-c2cccs2)nc(-c2cccs2)c1,1.47,0.39
Cc1c(OCC(=O)NCC(O)c2ccccc2)ccc2c3c(c(=O)oc12)CCCC3 (centres undefined),1.93,-0.8
Cc1ccc(C)c(NC(=O)C2CC(O)CN2C(=O)Oc2ccccc2)c1 (centres undefined),0.83,-0.57
O=C(COc1ccc(Br)cc1)N/N=C1\SCC(=O)N1c1ccc(F)cc1,2.45,-2.53
O=C(c1ccccc1)c1ccc(Cn2cc(CCCO)nn2)cc1,1.29,-0.74
Cc1ccc(Cn2c3ccccc3c3cn[nH]c(=O)c32)cc1,0.74,0.73
CCN(C1CCCCC1)S(=O)(=O)c1ccc(S(=O)(=O)N(CC(=O)Nc2ccccc2)C2CC2)cc1,0.19,-1.36
COc1ccc(C(=O)Nc2ccccc2C(=O)Nc2cccc(C)n2)cc1,1.38,1.52
C#Cc1ccc([C@@H]2C=C(C(=O)NC3CC3)O[C@H](OCc3ccc(CO)cc3)C2)cc1,0.49,-0.89
COC(=O)Cn1c(=NC(=O)CSCC(=O)Nc2cc(C)on2)sc2cc(C(=O)OC)ccc21,1.79,1.57
C=CCOc1ccc(C2/C(=C(/O)c3ccc4c(c3)CC(C)O4)C(=O)C(=O)N2CCCN2CCOCC2)cc1 (centres undefined),0.88,2.87
COc1cc(C)c(Cl)cc1S(=O)(=O)n1ccnc1,0.36,-0.45
NC(=O)/C(N=Nc1ccccc1)=N/Nc1ccccc1,0.3,-1.95
CCn1c(=O)c2ccccc2n2c(SCC(N)=O)nnc12,0.05,-0.06
NC(=O)CSc1nnc(-c2ccoc2)o1,0.04,1.47
COc1ccc(C(=O)OCC(O)COC(=O)c2ccc(OC)cc2)cc1,1.29,0.11
CCc1noc(C)c1C(=O)Nc1ccc(C)c(S(=O)(=O)N2CCCCCC2)c1,2.49,-1.36
Cc1ccc(OCCCN(C)C)c(Br)c1,0.24,0.22
COc1ccc(C(=O)OCC(=O)NCCN2C(=O)CSC2=O)cc1,0.57,-0.08
Cc1cc(C)c(C(N)=O)c(NC(=O)Nc2ccccc2)n1,1.85,-0.5
Cc1cccc(NS(=O)(=O)c2cc3c(cc2C)NC(=O)CO3)c1,1.55,0.16
CCOc1ccc(C2C(C(=O)Nc3cc(C)on3)c3ccccc3C(=O)N2CCN2CCOCC2)cc1 (centres undefined),0.83,-0.15
CC(CP(=O)(O)O)NC(=O)Cc1ccccc1 (centres undefined),1.46,-0.46
CCC1(c2ccccc2)NC(=O)N(CC(=O)Nc2ccc(S(=O)(=O)NC3=NCCCCC3)cc2)C1=O (centres undefined),1.46,0.34
CCN1CCN(C(CNS(=O)(=O)c2ccc(Cl)cc2)c2ccccc2)CC1 (centres undefined),1.43,1.51
CN(Cc1ccccc1)C(=O)COC(=O)c1ccc2ccccc2n1,0.81,1.99
CCn1nc(C(=O)Nc2nc3ccccc3[nH]2)c2ccccc2c1=O,0.19,-0.17
COc1cc(C(CC(=O)Nc2cc(C)ccn2)N2Cc3ccccc3C2=O)cc(OC)c1OC (centres undefined),0.85,-1.73
CC(=O)Oc1ccc(-c2cccc(C(=O)NCCO)c2)cc1,0.85,-1.64
COC(=O)CSc1ncc(C#N)c(N)n1,1.59,-1.26

# Whole records as entered above. Order of screens: KCNQ2 pot, KCNQ2 pot baseline
# COC(=O)CSc1ncc(C#N)c(N)n1 is listed as 1.59, -1.26
# NC(=O)c1ccc[n+](CC(=O)Nc2ccccc2C(=O)O)c1 is listed as 2.68, -1.43

# Remaining list, next part.
SMILES,KCNQ2 pot,KCNQ2 pot baseline
CC1CN(C(=O)c2ccc(S(=O)(=O)Nc3ccccc3Cl)cc2)CC(C)O1 (centres undefined),0.13,0.21
CCOc1ccc(-c2c(C(=O)N/N=C/c3ccc(Cl)cc3)nnn2-c2nonc2N)cc1,0.98,1.55
Cc1ccccc1CN1[C@@H](C(C)C)COCCS1(=O)=O,0.87,-0.12
Cc1cc(OCC(=O)NCCc2cccc(F)c2)c2c(C)cc(=O)oc2c1,1.45,-0.44
Fc1ccc(Oc2cnc3ccccc3n2)cc1,1.58,-0.72
COc1cc(C2NC(=S)NC3=C2CCc2ccccc23)cc(OC)c1OC (centres undefined),1.32,1.74
CC(C)CNC(=O)COC(=O)CCC(=O)c1ccc(F)cc1,0.07,-1.19
O=C(Nc1ccc(S(=O)(=O)Nc2cnc3ccccc3n2)cc1)c1ccc(Br)o1,0.54,-0.54
O=C1/C(=C/c2ccncc2)SC(=S)N1N1CCOCC1,1.99,-0.05
CCOc1nc(NCCO)nc(Nc2cc(Cl)ccc2OC)n1,0.02,-0.59
CC(C)(C)NC(=O)c1cnn2c1NC(c1ccc(F)cc1)CC2C(F)(F)F (centres undefined),0.58,-0.09
Cc1nnsc1C(=O)N/N=C/c1c(F)cccc1Cl,1.38,-0.01
CCOC(=O)C(=CNc1ccc(Oc2cncc(Cl)c2)nc1)C(=O)OCC,0.18,0.27
COc1ccc(NC(=O)CSc2ccc(-c3cccnc3)nn2)c(OC)c1,0.85,-0.24
COc1ccc(NC(=O)CCNS(=O)(=O)c2cc(Br)cnc2N)cc1OC,0.27,0.41
O=C(NCC(=O)N(c1cccnc1)C(C(=O)NC1CCCC1)c1cccs1)c1ccco1 (centres undefined),0.19,-1.61
CCC(C)(C)n1nnnc1C(c1ccccc1OC)N1CCN(C(=O)c2ccco2)CC1 (centres undefined),1.22,-1.15
O=C(Nc1cccc(NC(=O)c2cccc(Cl)c2)c1)c1cccnc1,1.34,-2.73
CC1CN(C2CCN(S(=O)(=O)Cc3ccccc3)CC2)CC(C)O1 (centres undefined),0.21,-2.6
CC(C)(C)c1csc(NC(=O)c2ccc(Cl)s2)n1,0.69,2.35
CCc1ccc(OCC(=O)NNC(=O)c2nn(CC)c(=O)c3ccccc23)cc1,0.44,0.55
Cc1ccc(Nc2cnn(C34CC5CC(CC(CC(=O)O)(C5)C3)C4)c(=O)c2Cl)c(Cl)c1,1.06,-0.88
CC(=O)Nc1ccc(NS(=O)(=O)c2ccc(-c3cnc(C4CC4)o3)cc2)cc1,0.39,-1.2
CC(C)n1cnc2c(NCc3ccccc3)nc(NCc3ccccc3)nc21,0.34,0.06
COc1ccccc1NC(=O)CCNS(=O)(=O)c1ccc2[nH]c(=O)oc2c1,0.02,-0.1
Cc1cc(C)cc(NC(=O)Nc2cc(-c3ccccc3)nn2C)c1,0.34,-0.59
Cc1ccccc1OCCC(=O)OCC(=O)Nc1c(C)nn(-c2ccccc2)c1C,1.82,-0.62
Cc1c(C(=O)O)oc2ccc(S(=O)(=O)NC3CCCCCCC3)cc12,0.09,0.49
Cc1ccc(OCCC(=O)OCC(=O)NC2CCCC2)cc1,0.18,0.09
COc1ccc(C(=O)N2CCCCC2)cc1S(=O)(=O)Nc1cccc(C(=O)O)c1,0.77,-0.19
O=C(C1CCN(C2CC(=O)N(c3cccc(Cl)c3)C2=O)CC1)N1CCCC1 (centres undefined),0.89,-0.94
Cc1cc(F)c(F)c(C(=O)N2CCOCC2)c1Cl,2.31,-1.25
CCc1nc(Nc2cccc(O)c2)c2oc3ccccc3c2n1,0.03,0.01
COc1ccc(CCNC(=O)CC(NC(=O)c2ccccc2Cl)c2ccccc2)cc1 (centres undefined),0.93,-1.8
CCCCOc1ccc(C(=O)Oc2cccnc2)cc1,0.68,-0.65
CCOC(=O)COc1nc(-c2ccccc2)cc(-c2ccco2)c1C#N,2.44,-0.03
O=S(=O)(c1ccc(NC(=S)N2CCN(c3ccccc3F)CC2)cc1)N1CCOCC1,0.58,1.34
Cc1csc2nc(O)c(C(=O)NCCN3CCOCC3)c(=O)n12,0.88,2.38
CCC(=O)NCCc1nc2ccccc2n1Cc1ccc(C)cc1,0.4,-0.22
O=C(C1CC1)N1CCc2cc(Br)cc(S(=O)(=O)NCCCN3CCCCC3)c21,0.98,0.61
Cc1ccccc1C(=O)NC1CCN(C(=O)Nc2ccc(F)cc2)CC1,1.73,0.03
CN(C)S(=O)(=O)c1cccc(NC(=O)COC(=O)/C=C/c2ccc(Br)o2)c1,2.32,-0.1
Nc1nccc(-c2cccs2)n1,0.09,0.95
O=C(NC12CC3CC(CC(C3)C1)C2)c1ccc(=O)oc1,0.42,2.32
CC(=O)c1ccc(OCCCC(=O)NCCc2ccc(C(F)(F)F)cc2)cc1,0.35,0.3
O=C(CCl)N1CCN(S(=O)(=O)c2ccc3ccccc3c2)CC1,1.94,-0.03
Cc1cccn2c(=O)c3cc(C(=O)N(C)C)n(C)c3nc12,0.48,0.04
O=C(COc1ccccc1)Nc1ccncc1Cl,0.67,0.69
Cc1ccc(NC(=O)C2CC=CCC2C(=O)N2CCCCC2)cc1 (centres undefined),0.35,0.82
CC(C)(C)NS(=O)(=O)c1ccc(NC(=O)NC2CCCCC2)cc1,0.68,1.88
CC(C)(C)C1CCc2c(C(=O)NNC(=O)CCC(=O)O)csc2C1 (centres undefined),0.96,0.08
O=[N+]([O-])c1cc(Cl)ccc1N1CCCC1,0.43,-0.4
CS(=O)(=O)c1ccccc1C(=O)NC1CCCc2ccccc21 (centres undefined),0.58,-1.15
CC(C)Oc1ccc(C(=O)Nc2cc(=O)n(C)c(=O)n2C)cc1,0.59,0.86
CCc1nc(SCC(=O)Nc2c(C)nn(C)c2C)c2cnn(-c3ccccc3)c2n1,0.2,1.5
CCOC(=O)c1[nH]c2ccc(F)cc2c1NC(=O)Nc1ccccc1OC,1.65,0.01
O=C(NCCCN1CCOCC1)c1cc(-c2ccc(Cl)c(Cl)c2)on1,2.2,-1.21
O=C1CN(C(=O)c2ccccc2F)C(c2ccccc2)c2cc(Cl)ccc2N1 (centres undefined),1.92,-0.58
C/C(=N\NC(=O)c1nnn(-c2nonc2N)c1C(C)C)c1ccncc1,0.02,0.37
O=c1c2ccccc2[nH]c(=S)n1CCCN1CCC(Cc2ccccc2)CC1,2.21,-2.07

# Next part.
SMILES,KCNQ2 pot,KCNQ2 pot baseline
CCn1c(=O)c(C(=O)NNC(=O)c2ccccc2)c(O)c2ccccc21,0.93,0.04
O=C(Nc1ccccc1C(=O)NCCCN1CCOCC1)c1ccc(F)cc1,0.8,-0.06
O=C(NCc1cccnc1)c1cnc2ccccc2n1,0.79,-2.01
Cc1cc(C)n(-c2nc3c(c(=O)[nH]c(=O)n3C)n2CC(O)COc2ccc(Cl)cc2Cl)n1 (centres undefined),0.45,-0.53
S=C(Nc1ccccc1Oc1ccccc1)NC1CCCC1,3.12,-1.51
COc1ccc(S(=O)(=O)N(CC(C)C)C2CCS(=O)(=O)C2)cc1OC (centres undefined),1.46,-0.57
CCOC(=O)c1ccc(NC(=S)NN2CCN(C)CC2)cc1,0.16,-0.35
CCC(=O)N=c1sc2c(C)cc(C)cc2n1CC(=O)OC,0.02,0.53
COC(=O)[C@@H]1C(c2ccccc2)(c2ccccc2)[C@@]1(C)C(=O)OC,2.41,1.66
Cc1csc2nc3cc(C(N)=O)ccc3c(=O)n12,0.64,2.91
COc1ccccc1C(=O)Nc1ccc(-c2nnc(SCC(=O)O)n2C)cc1,0.55,-0.44
CCCCOC(=O)Nc1ccc(C)c(Cl)c1,4.4,2.12
O=C1C(Nc2ccccc2)=C/C(=N/S(=O)(=O)c2cccs2)c2ccccc21,2.11,0.53
COc1ccc(C(=O)CSc2nnc(-c3ccc(S(=O)(=O)N4CCOCC4)cc3)o2)cc1,0.26,-1.07
Cc1nc2ccccc2c(=O)n1NC(=O)C1CCC(C(C)(C)C)CC1 (centres undefined),2.32,-0.27

# Gathered by group: the entries above containing fluorine (13)
SMILES,KCNQ2 pot,KCNQ2 pot baseline
O=C(COc1ccc(Br)cc1)N/N=C1\SCC(=O)N1c1ccc(F)cc1,2.45,-2.53
Cc1cc(OCC(=O)NCCc2cccc(F)c2)c2c(C)cc(=O)oc2c1,1.45,-0.44
Fc1ccc(Oc2cnc3ccccc3n2)cc1,1.58,-0.72
CC(C)CNC(=O)COC(=O)CCC(=O)c1ccc(F)cc1,0.07,-1.19
CC(C)(C)NC(=O)c1cnn2c1NC(c1ccc(F)cc1)CC2C(F)(F)F (centres undefined),0.58,-0.09
Cc1nnsc1C(=O)N/N=C/c1c(F)cccc1Cl,1.38,-0.01
Cc1cc(F)c(F)c(C(=O)N2CCOCC2)c1Cl,2.31,-1.25
O=S(=O)(c1ccc(NC(=S)N2CCN(c3ccccc3F)CC2)cc1)N1CCOCC1,0.58,1.34
Cc1ccccc1C(=O)NC1CCN(C(=O)Nc2ccc(F)cc2)CC1,1.73,0.03
CC(=O)c1ccc(OCCCC(=O)NCCc2ccc(C(F)(F)F)cc2)cc1,0.35,0.3
CCOC(=O)c1[nH]c2ccc(F)cc2c1NC(=O)Nc1ccccc1OC,1.65,0.01
O=C1CN(C(=O)c2ccccc2F)C(c2ccccc2)c2cc(Cl)ccc2N1 (centres undefined),1.92,-0.58
O=C(Nc1ccccc1C(=O)NCCCN1CCOCC1)c1ccc(F)cc1,0.8,-0.06

# Molecules above that contain a CF3 group (2):
SMILES,KCNQ2 pot,KCNQ2 pot baseline
CC(C)(C)NC(=O)c1cnn2c1NC(c1ccc(F)cc1)CC2C(F)(F)F (centres undefined),0.58,-0.09
CC(=O)c1ccc(OCCCC(=O)NCCc2ccc(C(F)(F)F)cc2)cc1,0.35,0.3

# Not all compounds are listed, so the mix of outcomes need not match the whole.
